Assay outcomes (PubChem)
TAR Tat displ – TAR RNA-Tat peptide displacers, HIV-1, primary screen, biochemical, FRET, FAM/TAMRA-labeled Tat; HIV-1 TAR RNA, Tat peptide displacement FRET; active compounds read high; z-score (test concentration not listed); 100,000 compounds, 0.6% hits; AID 1259389, 2018;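 also: score is relative to mean and SD of negative controls; some compounds called inactive have numbers as strong as hits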
CDC25B CDK2 inh – primary biochemical HTRF screen for blockers of M-phase inducer phosphatase 2 binding to CDK2/cyclin A; P30305+P24941; HTRF CDC25B-CDK2/CyclinA binding, anti-His/anti-Flag; active compounds read high; z-score (test concentration not listed); 94,000 compounds, 0.72% hits; AID 1259370, 2018;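 also: score is relative to mean and SD of negative controls; strong numbers were not always called active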
The depositor's hits bear a star; . = no result given.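 The calls were made as follows: active = z-score from 3 up in half or more of its runs; inactive = the rest.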

SMILES	TAR Tat displ	CDC25B CDK2 inh
COc1ccc(-c2nc(-c3cc4cc(C)ccc4nc3OC)no2)cc1OC	-0.21	-5.23
COc1cc(NC(=O)C2CCC(CNc3c(N4CCCC4)c(=O)c3=O)CC2)cc(OC)c1 (centres undefined)	1.47	-0.26
O=c1cc(C2CCNCC2)nc2cc(-c3ccc(Cl)cc3)[nH]n12	.	-1.38
CCOC(=O)C(C(C)=O)c1cc(NS(=O)(=O)c2ccc(C)cc2)c2ccccc2c1NS(=O)(=O)c1ccc(C)cc1 (centres undefined)	.	-0.13
C=CCn1c(O)c(C2=Nc3ccccc3SC(c3ccc(OCC)cc3)C2)c(=O)[nH]c1=O (centres undefined)	0.63	0.05
CCOC(=O)Cn1c(=O)c2c3c(sc2n(CC(=O)N2CCCC2)c1=O)COC(C)(C)C3	-0.97	-0.7
N#CC1=C(N)C(C#N)(C#N)C2(CCCCC2)C2CCCC=C12 (centres undefined)	.	-1.53
CCCOC(=O)C1=C(C)NC2=C(C(=O)CCC2)C1c1cccc(Br)c1 (centres undefined)	-0.12	-1.57
CCc1ccc2occ(CC(=O)Nc3sc4c(c3C(=O)NCc3ccco3)CCCC4)c2c1	2.18	-1.1
Cc1ccc(-c2csc3ncn(CCCOC(C)C)c(=O)c23)cc1	2.55	0.43
O=C1CC(c2cccs2)c2ccc3ccccc3c2N1 (centres undefined)	-0.11	-1.09
O=C1CCCc2oc3c(cc(NS(=O)(=O)c4ccc(Br)cc4)c4ccccc43)c21	.	0.83
O=C(/C=C/c1cccc2ccccc12)Nc1ccc(S(=O)(=O)N2CCCC2)cc1	.	-0.46
CC1(O)CCCCCCCCCCC1	.	-2.1
CCOC(=O)C1=C(N)Oc2c(oc(CO)cc2=O)C1c1ccc(F)cc1 (centres undefined)	.	-0.16
CC(=O)N1CCC2(CC1)OC(=O)C(C)=C2C(=O)NCCN1CCCC1	1.22	.
Cc1csc2nc(COc3ccc(NC(=O)CC(C)C)cc3)cc(=O)n12	-1.26	-1.36
Cc1cc2c3c([nH]c2cc1S(=O)(=O)Nc1ccc(F)cc1Cl)CCCC3=O	-0.28	.
Cc1cc2c(cc3c(SCc4ccccc4Cl)nnc(C)n32)o1	0.34	.
CCOC(=O)c1c(S(=O)(=O)Nc2ccc(OC)cc2OC)c(C)n(C)c1C	0.75	.
CCOC(=O)C1(C(F)(F)F)N=C(N2CCOCC2)OC(N2CCOCC2)=N1	.	0.81
C=CCc1ccccc1OCCn1c(CN2CCOCC2)nc2ccccc21	0.03	-0.66
COc1ccc(N2CSC3=C(C#N)C(c4ccc(Br)cc4)CC(=O)N3C2)cc1 (centres undefined)	-1.36	5.33*
Cc1ccc(Cl)cc1-n1ncc2c(N(CCO)Cc3ccccc3)ncnc21	1.66	.
CC(=O)O[C@@H]1CC2C(C)(C)CCC(=O)[C@]2(C)C2CC[C@@]3(C)[C@H](c4ccoc4)OC(=O)C4OC43[C@@]21C (some centres undefined)	2	.
Other entries:
SMILES	TAR Tat displ	CDC25B CDK2 inh
O=C(NC1CCCCC1)C1c2ccccc2C(=O)N1Cc1ccco1 (centres undefined)	.	-1.18
CCOc1ccc(C(=O)Nc2c(C)nc3cc(C)ccn3c2=O)cc1OCC	1.55	.
CCCNC(=O)c1c(C)oc2ncnc(N3CCCCC3)c12	0.06	.
COC(=O)c1cc(S(=O)(=O)N(C)C2CCCCC2)c[nH]1	1.64	.
CCSc1nnc(NC(=O)c2nc(SC)ncc2Cl)s1	2.51	-2.3
COc1ccc(OC)c(NC(=O)CSc2ccc(-c3ccccn3)nn2)c1	2.43	.
CC1=C(C(=O)NCCCN(CC(C)C)CC(C)C)C2(CCCCC2)OC1=O	1.85	-1.48
COc1ccc2c(c1)C=C(C(=O)NCCO)C=CO2	-0.03	-1.49
O=C(CCNC(=O)Cn1cnc2sc3c(c2c1=O)CCCC3)NCC1CCCO1 (centres undefined)	.	1.08
CCOC(=O)c1nnc(/C=C(\O)c2cccs2)c(=O)[nH]1	.	-1.19
COc1ccc(C(=O)CSc2nnc(-c3ccco3)c(-c3ccco3)n2)cc1	20.2*	-1.2
Cc1cc(C(C)(C)C)n2nc(C)c(-c3ccccc3)c2n1	-0.48	0.31
O=C(c1nc(S(=O)(=O)Cc2ccccc2)ncc1Cl)N(Cc1ccccc1)Cc1ccco1	0.92	-1.87
CN(Cc1ccc(-n2cccn2)cc1)C(=O)c1cnn2c(C(F)(F)F)cc(-c3ccco3)nc12	0.47	-1.37
O=C(c1ccc2c(=O)n(Cc3ccc4c(c3)OCO4)c(=O)[nH]c2c1)N1CC=C(c2ccccc2)CC1	0.68	.
CCOc1ccccc1-c1noc(CSc2nnc(C)n2-c2ccccc2)n1	-1.74	-1.91
O=C(OCCSc1sccc1[N+](=O)[O-])c1ccc(Cl)cc1	.	-1.05
CC(C)(C)OC(=O)N1CCN(C(=O)c2ccccc2C(=O)O)CC1	.	-2.16
CCOc1ccc(S(=O)(=O)[C@H]2CS(=O)(=O)C[C@@H]2NCCc2c[nH]c3ccccc23)cc1	0.68	-0.02
O=C(Cn1c(=O)c2cccn2c2ccccc21)N1CCN(c2ccccc2)CC1	1.27	.
N#CC1=C(N)OC2=C(C(=O)CCC2)C12C(=O)Nc1ccc(Br)cc12 (centres undefined)	.	-0.29
CCOC(=O)N1CCC(NC(=O)CCS(=O)(=O)c2ccc3c(c2)NC(=O)C(C)S3)CC1 (centres undefined)	1.65	.
CN1C(=O)C(O)(CC(=O)c2ccc(C3CCCCC3)cc2)c2ccccc21 (centres undefined)	2.37	-0.81
Cc1ccc2c(=O)c(CN3CCCCCC3)c(C)[nH]c2c1C	.	-0.31
Clc1ccc(OCCn2c(C3CCCO3)nc3ccccc32)cc1 (centres undefined)	1.32	1.07
The listing continues:
SMILES	TAR Tat displ	CDC25B CDK2 inh
CC(Sc1nnc(-c2ccncc2)o1)C(=O)N1CCc2ccccc21 (centres undefined)	-2.98	-0.46
COc1ccc(N2CCN(S(=O)(=O)c3ccc(-c4ccc(=O)[nH]n4)o3)CC2)cc1	-3.08	.
COC(=O)C1=C(C)NC2=C(C(=O)CC(c3ccccc3Cl)C2)C1c1ccc2c(c1)OCO2 (centres undefined)	.	-0.78
Fc1ccc(-n2nnc(-c3ccccc3)n2)cc1	0.45	-1.31
O=C1CCOc2c(F)cc(F)cc21	.	-0.03
CCOC(=O)c1sc(NC(=O)c2nn(-c3cccc(Cl)c3)ccc2=O)c(C(=O)OCC)c1C	0.66	0.18
COC(=O)c1cc(S(=O)(=O)Nc2ccccc2F)cn1C	1.55	-0.83
Cc1ccc(-c2ccc(=O)[nH]n2)cc1S(=O)(=O)N(Cc1ccco1)C1CCCC1	-0.44	-0.71
O=C(CC(Sc1ccc(C(F)(F)F)cn1)C(=O)O)c1ccc(Br)cc1 (centres undefined)	.	-0.68
O=c1c2ccccc2cnn1Cc1nc2c3c(ncn2n1)CCC3	0.74	-1.34
CN(C)CCNC(=O)c1nn(C)c2c1CSc1ccccc1-2	0.8	-0.27
O=S(=O)(c1ccc(F)cc1)N1CCN(c2nc3ccccc3n3cccc23)CC1	2.45	-2.16
Cc1ccc(Nc2nc(N3CCOCC3)nc3c2cnn3C)cc1	-0.42	.
Cc1cc(C)cc(N2C(=O)C3NN=C(C(=O)OCc4ccccc4)C3C2=O)c1 (centres undefined)	3.26	0.78
Cc1ccccc1Nc1nc(Nc2ccccc2)c2cnn(C)c2n1	0.7	.
O=S1(=O)CCC2CC=CCC21 (centres undefined)	.	-1.4
O=C(O)c1ccc(S(=O)(=O)c2ccc3c(c2)C(=O)N(c2ccc(O)c(C(=O)O)c2)C3=O)cc1	.	1.87
O=C1CCSc2ccc(S(=O)(=O)N(Cc3ccc(F)cc3)Cc3cccnc3)cc2N1	1.21	.
Cc1noc2ncn(CC(=O)NC(C)C)c(=O)c12	0.55	.
CCCOc1cccc(C2c3c(oc4ccccc4c3=O)C(=O)N2Cc2ccc3c(c2)OCO3)c1 (centres undefined)	-0.92	-1.37
Cc1cc(NCC(C)C)n2ncc(-c3ccc(F)cc3)c2n1	0.45	-0.04
CC1CCCN(S(=O)(=O)c2ccc3[nH]c4c(c3c2)CCCC4)C1 (centres undefined)	-1.64	.
Fc1ccc(CN2CCC(N3CCN(c4ccccc4)CC3)CC2)cc1	.	-1.18
Cc1cc(C)c(C#N)c(SCC(=O)c2ccc3c(c2)OCO3)n1	-0.29	-2.4
CCc1cc2c(cc3n2CC(C)(C(=O)NC2CCC(C)CC2)N(CCN2CCOCC2)C3=O)s1 (centres undefined)	-0.15	-1.28

A draw from above in order of molecular weight, lowest first:
SMILES	TAR Tat displ	CDC25B CDK2 inh
O=S1(=O)CCC2CC=CCC21 (centres undefined)	.	-1.4
O=C1CCOc2c(F)cc(F)cc21	.	-0.03
Cc1cc(NCC(C)C)n2ncc(-c3ccc(F)cc3)c2n1	0.45	-0.04
COC(=O)c1cc(S(=O)(=O)Nc2ccccc2F)cn1C	1.55	-0.83
CN(C)CCNC(=O)c1nn(C)c2c1CSc1ccccc1-2	0.8	-0.27
Cc1cc(C)c(C#N)c(SCC(=O)c2ccc3c(c2)OCO3)n1	-0.29	-2.4
Cc1ccccc1Nc1nc(Nc2ccccc2)c2cnn(C)c2n1	0.7	.
CC1CCCN(S(=O)(=O)c2ccc3[nH]c4c(c3c2)CCCC4)C1 (centres undefined)	-1.64	.
CC(Sc1nnc(-c2ccncc2)o1)C(=O)N1CCc2ccccc21 (centres undefined)	-2.98	-0.46
Cc1cc(C)cc(N2C(=O)C3NN=C(C(=O)OCc4ccccc4)C3C2=O)c1 (centres undefined)	3.26	0.78
O=C(CC(Sc1ccc(C(F)(F)F)cn1)C(=O)O)c1ccc(Br)cc1 (centres undefined)	.	-0.68
COC(=O)C1=C(C)NC2=C(C(=O)CC(c3ccccc3Cl)C2)C1c1ccc2c(c1)OCO2 (centres undefined)	.	-0.78
O=C1CCSc2ccc(S(=O)(=O)N(Cc3ccc(F)cc3)Cc3cccnc3)cc2N1	1.21	.
CCCOc1cccc(C2c3c(oc4ccccc4c3=O)C(=O)N2Cc2ccc3c(c2)OCO3)c1 (centres undefined)	-0.92	-1.37
CCc1cc2c(cc3n2CC(C)(C(=O)NC2CCC(C)CC2)N(CCN2CCOCC2)C3=O)s1 (centres undefined)	-0.15	-1.28

Next entries
SMILES	TAR Tat displ	CDC25B CDK2 inh
CCC1(C)Cc2c(sc3nc(SCc4ccccc4F)nc(N)c23)CO1 (centres undefined)	-1.02	-2.24
COc1ccc(OC)c(NCc2nnc3n2CCCCC3)c1	0.2	.
NC(=O)c1c(NC(=O)Cn2nc(C(F)(F)F)c3c2CCCC3)sc2c1CCCC2	-0.1	-0.89
CCOC(=O)Nc1ccc(S(=O)(=O)N2CCOCC2)cc1	4.59	0.77
Cc1ccc2c(c1)N(C(=O)N1CCC(C(=O)N3CCCCC3)CC1)CC(C)O2 (centres undefined)	1.46	.
CCc1nnc(NC2=NS(=O)(=O)C(c3cccc(Br)c3)=C2C)s1	-0.06	-1.51
COc1ccc(OC)c(CNc2nc3nc(C)c(Cl)c(=O)n3[nH]2)c1	0.23	-1.22
O=C1C2N=NN(Cc3ccc(Cl)cc3)C2C(=O)N1c1ccc(F)cc1 (centres undefined)	3.15	-0.38
Cc1cc([N+](=O)[O-])ccc1-c1ccc(C(=O)Nc2cc(Cl)cc(Cl)c2)o1	.	0.83
CCOC(=O)CNC(=O)N1CCCC1c1cccs1 (centres undefined)	0.8	-2.07
Cc1nn(-c2ccccc2)c(Cl)c1C1C(C#N)=C(N)OC2=C1C(=O)CCC2 (centres undefined)	.	-0.28
CCOC(=O)CC1(NC(=O)NCc2c(C)nn(C)c2C)CCCCC1	1.46	.
COc1cc(OC)c(NC(=O)NCc2c(C)nn(C)c2C)cc1Cl	1.25	.
CN(c1ncnc2onc(-c3ccc(Cl)cc3)c12)C1CCCCC1	-0.01	-0.41
O=C(OCCCN=C1NS(=O)(=O)c2ccccc21)c1ccccc1	0.41	-0.15
COc1cccc(Cn2c(=S)[nH]c3ncccc3c2=O)c1	.	-0.87
COc1ccc(C2NC(=O)C(=O)/C2=C(\O)c2ccc(Br)cc2)cc1 (centres undefined)	0.52	0.19
COC(=O)c1c(SCC(=O)Nc2ccc3c(c2)OCCO3)[nH]c2ccccc2c1=O	-0.67	.
O=C(O)CCCNc1ncnc2ccccc12	-0.64	-3.37
Cc1ccc(-c2n[nH]c3c2C(c2cccc(O)c2)N(C)C3=O)cc1 (centres undefined)	-0.04	0.27
CC(C)(C)NC(=O)c1oc2ccccc2c1NC(=O)c1ccco1	-0.26	.
O=C1c2cccnc2C(=O)N1CCc1ccc(S(=O)(=O)NC2CCCCC2)cc1	-0.93	.
CC(C)(C)c1cc(CCC(=O)N2CCNCC2)c(C(C)(C)C)cc1O	.	0.72
CSc1cccc(NC(=O)Nc2c(C)nc3nc[nH]n3c2=O)c1	-0.16	-1.63
COC(=O)c1ccc(CSc2ccc3nnc(-c4ccc(OC)c(OC)c4)n3n2)o1	.	0.83
(next part)
SMILES	TAR Tat displ	CDC25B CDK2 inh
COc1ccc(C2OCc3ccccc3N2C(=O)c2cccc(OC)c2)cc1 (centres undefined)	.	-0.19
CCCc1nn2c(=O)cc(CSc3ccccc3NC(=O)c3cccs3)nc2s1	-0.63	.
CCCCn1c(-c2ccccc2F)n[nH]c1=S	.	-0.57
O=C(CCc1nc(-c2ccncc2)no1)Nc1ccccn1	0.5	-0.62
COc1ccc(-c2csc3ncnc(NCc4ccco4)c23)cc1	0.34	.
O=C(Cn1c2ccccc2c2cn[nH]c(=O)c21)NCCCN1CCCC1=O	.	1.09
Cc1ccc(C)c(N2CCN(S(=O)(=O)c3ccc(-c4coc(C)n4)cc3)CC2)c1	1.03	.
O=C(NCc1ccco1)c1cc2ccccc2o1	-12.1	-0.39
O=S(=O)(CS(=O)(=O)N1CCOCC1)N1CCOCC1	.	0.57
C=CCOC(=O)c1sc(NC(=O)CSc2nnc3cc(C)c4ccccc4n23)nc1C	-0.49	-1.76
Cc1noc2ncnc(NCC3CCN(Cc4ccc(Cl)cc4)CC3)c12	0.71	.
N#CC1=C2SCN(c3ccc(Br)cc3)CN2C(=O)CC1c1cccc(F)c1 (centres undefined)	-2.98	6.61*
